eIF4H FP inh = inhibitors of RNA binding by human eIF4H; 0.94% of 290,000 active; inhibition, % at 35 µM; eIF4H fluorescence polarization binding assay;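 active means 50% or more with normal probe brightness, or confirmed in later tests; about a fifth of its hits are not listed in these tables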;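 further: calls also rest on retests at 20 µM and on dose response follow-up; 0% = protein and probe with vehicle and 100% = probe without protein; strong numbers were not always called active; many hits fall short of the cut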
CSC inhib = cancer stem cell inhibition; 1.1% of 300,000 active; AID 2717; cancer stem cell-like cells viability, luminescence; inhibition, % at 7.5 µM;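 active means mean at 75% or more and at least half the replicates too; tested in HMLE shEcad cells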;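 further: 0% = median of negative and 100% = median of positive control wells; the first replicate is given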
MT1-MMP act inh = inhibitors of human MT1-MMP activation. 0.061% of 360,000 active. HT1080 RFP-PRO-GFP cells, GFP/RFP ratio fluorescence, overnight; percent of plate control window, DMSO zero. P50281. GFP/RFP ratio change, % at 20 µM;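 active means GFP/RFP ratio change of at least 30% with cell ATP level not reduced by more than half and red fluorescence within 50% of control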; further: strong numbers were not always called active
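Compound: 20 µM single dose, 1% DMSO / System: HT1080 RFP-PRO-GFP cells / Controls: DMSO and RFP-L50D-GFP cell wells / Read-out basis: GFP/RFP fluorescence ratio / Schedule: overnight compound exposure at 37 °C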
HIV Env fusion = inhibitors of HIV Env-mediated cell fusion | HeLa-JRFL Env/CEM21 cell fusion, luciferase | inhibition, % at 12.3 µM | 1.1% of 360,000 active;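 active means mean replicate inhibition score of at least 50 and every replicate individually at or above 50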;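 further: 0% = plate neutral controls and 100% = maraviroc near 300 nM; one replicate is shown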
Rce1 inh = inhibitors of yeast Ras-converting enzyme; Q03530; yeast membranes, quenched prenylated peptide cleavage fluorescence; calls only; 0.27% of 290,000 active;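 active means fall in fluorescence gain of 50% or more versus controls, with final raw signal at or below 3038400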;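 further: plate controls were neutral control wells for no effect and wells lacking membranes for full effect; tested at 10 µM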
Target sequence (Q03530 whole entry, looked up): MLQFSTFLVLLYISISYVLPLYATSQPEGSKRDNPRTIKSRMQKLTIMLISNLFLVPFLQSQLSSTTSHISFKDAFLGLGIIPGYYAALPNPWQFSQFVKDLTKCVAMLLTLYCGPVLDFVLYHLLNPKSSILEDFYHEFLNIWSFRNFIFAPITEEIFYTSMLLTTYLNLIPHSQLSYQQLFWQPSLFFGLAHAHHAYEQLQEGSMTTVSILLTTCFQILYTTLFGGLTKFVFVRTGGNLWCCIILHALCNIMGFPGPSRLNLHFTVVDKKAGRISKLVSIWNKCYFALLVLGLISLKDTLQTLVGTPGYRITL
UUG fidelity = alters start codon recognition fidelity in yeast; S. cerevisiae UUG-firefly luciferase reporter, luminescence/redox ratio; activity score, % at 18.7 µM; 0.13% of 350,000 active; AID 602363;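 active means replicate mean at a twofold rise or more, about +100% in these data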;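 further: firefly luciferase made from a UUG start codon reports start codon fidelity; reporter light over untreated wells divided by growth signal over untreated wells; some hits fall short of that in this replicate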
PABP polyA inh = PABP-poly(A) binding inhibition. 1% of 290,000 active. PABP-poly(A) RNA binding, fluorescence polarization. inhibition, % at 35 µM. P11940;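 active means 50% or more with normal probe brightness, or confirmed in later tests; about a fifth of its hits are not listed in these tables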;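 further: calls also rest on retests at 20 µM and on dose response follow-up; controls were probe without protein and protein plus probe with vehicle; some compounds called inactive have numbers as strong as hits; many hits fall short of the cut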
MT1-MMP act inh RFP = recorded beside MT1-MMP act inh, whose call it bears; RFP signal change, %; measured here: RFP expression control read;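 0 = vehicle wells; hits needed this value within 50% of zero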
An asterisk follows results filed as active; & = joins results of further samples.

`CC(C)C1Nc2ccc(C(=O)NCc3ccco3)cc2NC1=O` (stereo not drawn) gave eIF4H FP inh 6, CSC inhib -3, MT1-MMP act inh -1, HIV Env fusion -7, Rce1 inh inactive, UUG fidelity -3, PABP polyA inh 14 and MT1-MMP act inh RFP -1.
Cc1cc(C)c2c(c1)N[C@H](c1cccs1)[C@@H]1CCO[C@H]21 was read as eIF4H FP inh -14, CSC inhib -3, MT1-MMP act inh -4, HIV Env fusion -2, Rce1 inh inactive, UUG fidelity -17, PABP polyA inh -8 and MT1-MMP act inh RFP -3.
O=C(Nc1ccccc1)c1ccc(=O)[nH]n1 was read as eIF4H FP inh 5, CSC inhib -4, MT1-MMP act inh -1, HIV Env fusion -2, Rce1 inh inactive, UUG fidelity -10, PABP polyA inh -3 and MT1-MMP act inh RFP 0.
CSCCC(NC(=O)c1ccco1)C(=O)N1CC=C(c2ccccc2)CC1 (stereo not drawn) was read as eIF4H FP inh -3, CSC inhib -7, MT1-MMP act inh -3, HIV Env fusion 6, Rce1 inh inactive, UUG fidelity -11, PABP polyA inh 7 and MT1-MMP act inh RFP 0.
For Cc1ccc(NC(=O)C(CC(=O)O)C2CCCO2)c(C)c1 (stereo not drawn) the results were eIF4H FP inh -7, CSC inhib -15, MT1-MMP act inh -1, HIV Env fusion 15, Rce1 inh inactive, UUG fidelity -17, PABP polyA inh -8 and MT1-MMP act inh RFP 2.
Screening COc1cccc2c1c(NC(=O)Nc1ccc(F)cc1F)nn2C returned eIF4H FP inh -7, CSC inhib -5, MT1-MMP act inh -5, HIV Env fusion 0, Rce1 inh inactive, UUG fidelity -6, PABP polyA inh -2 and MT1-MMP act inh RFP 1.
`O=C1OC(=O)c2c(Br)c(Br)c(Br)c(Br)c21` gave CSC inhib 2, MT1-MMP act inh 1, UUG fidelity 13 and MT1-MMP act inh RFP 8.
Screening CCOC(=O)C1CCCN(c2c(NCCN(C)Cc3ccccc3)c(=O)c2=O)C1 (stereo not drawn) returned eIF4H FP inh 3, CSC inhib -10, MT1-MMP act inh 3, HIV Env fusion -9, Rce1 inh inactive, UUG fidelity 0, PABP polyA inh -6 and MT1-MMP act inh RFP 2.
`O=C(CN1CCCC1)Nc1ccc(F)c(Cl)c1` gave eIF4H FP inh 10, CSC inhib -12, MT1-MMP act inh -1, HIV Env fusion 1, Rce1 inh inactive, UUG fidelity -11, PABP polyA inh 3 and MT1-MMP act inh RFP 6.
`COCCCNC(=O)c1cc2c(=O)n3cccc(C)c3nc2n(C(C)C)c1=N` gave eIF4H FP inh 6, CSC inhib -6, MT1-MMP act inh -4, HIV Env fusion -16, Rce1 inh inactive, UUG fidelity -13, PABP polyA inh 0 and MT1-MMP act inh RFP -2.
`c1csc(-c2nc3ccccc3s2)c1` gave eIF4H FP inh -2, CSC inhib -10, MT1-MMP act inh 5, HIV Env fusion -62, Rce1 inh inactive, UUG fidelity -20, PABP polyA inh -4 and MT1-MMP act inh RFP 6.
For CCCCCn1c(=O)c2ccccc2n2c(=S)[nH]nc12 the results were eIF4H FP inh -10, CSC inhib 4, MT1-MMP act inh -5, HIV Env fusion 3, Rce1 inh inactive, UUG fidelity -11, PABP polyA inh -4 and MT1-MMP act inh RFP -3.
For CCOC(=O)c1cc(-c2csc(COc3ccc(Cl)cc3)n2)on1 the results were eIF4H FP inh 7, CSC inhib -6, MT1-MMP act inh 2, HIV Env fusion -7, Rce1 inh inactive, PABP polyA inh -2 and MT1-MMP act inh RFP 1.
Screening CCCCc1c(O)nc2n(c1=O)CCS2 returned eIF4H FP inh 2, CSC inhib 2, MT1-MMP act inh 5, Rce1 inh inactive, PABP polyA inh 16 and MT1-MMP act inh RFP 4.
For O=C(N1CCOCC1)N1CCN(S(=O)(=O)c2ccc(Cl)cc2)C1 the results were eIF4H FP inh -9, CSC inhib 4, MT1-MMP act inh 2, HIV Env fusion -1, Rce1 inh inactive, UUG fidelity -21, PABP polyA inh -8 and MT1-MMP act inh RFP 2.
COCCNC(=O)CCc1nnc(C2(c3ccc(Cl)cc3)CCC2)o1 was read as eIF4H FP inh -7, CSC inhib -5, MT1-MMP act inh -4, HIV Env fusion -10, Rce1 inh inactive, PABP polyA inh -2 and MT1-MMP act inh RFP -1.
`Cc1c(C(=O)NCC2CCCO2)sc2nc(-c3ccccc3)cn12` (stereo not drawn) gave eIF4H FP inh -3, CSC inhib -3, MT1-MMP act inh 7, HIV Env fusion 25, Rce1 inh inactive, UUG fidelity -3, PABP polyA inh -7 and MT1-MMP act inh RFP 0.
COc1cc2c(c(O)c1OC)C(=O)C(OC)CCC2 (stereo not drawn) was read as eIF4H FP inh -11, CSC inhib -3, MT1-MMP act inh 4, Rce1 inh inactive, UUG fidelity -16, PABP polyA inh -10 and MT1-MMP act inh RFP 3.
Cc1cccc2cc(CN(CC3CCCO3)C(=O)c3ccncc3)c(=O)[nH]c12 (stereo not drawn) was read as eIF4H FP inh -6, CSC inhib 3, MT1-MMP act inh 0, HIV Env fusion -63, Rce1 inh inactive, PABP polyA inh -4 and MT1-MMP act inh RFP -2.
O=C(NC1CCCCCC1)C(=S)N1CCCC1 was read as eIF4H FP inh -9, CSC inhib -14, MT1-MMP act inh 1, HIV Env fusion 0, Rce1 inh inactive, UUG fidelity -10, PABP polyA inh 4 and MT1-MMP act inh RFP 4.
`COc1nc(Nc2ccc(C(C)=O)cc2)nc(OC)n1` gave eIF4H FP inh 3, MT1-MMP act inh 6, Rce1 inh inactive, UUG fidelity -7, PABP polyA inh 2 and MT1-MMP act inh RFP 0.
CCC(C)NC(=O)C1c2ccccc2C(=O)N1Cc1ccc(OC)cc1OC (stereo not drawn) was read as eIF4H FP inh 1, CSC inhib -11, MT1-MMP act inh 2, HIV Env fusion -61, Rce1 inh inactive, UUG fidelity -14, PABP polyA inh 2 and MT1-MMP act inh RFP 2.
Screening COc1ccc2[nH]c(=O)c(CN(Cc3cccnc3)Cc3nnnn3CC3CCCO3)cc2c1 (stereo not drawn) returned eIF4H FP inh 5, CSC inhib -3, MT1-MMP act inh 0, HIV Env fusion -10, Rce1 inh inactive, PABP polyA inh -2 and MT1-MMP act inh RFP -3.
`OC(c1ccccc1)c1ccccc1CN1CCCNC1=S` (stereo not drawn) gave MT1-MMP act inh -2, HIV Env fusion -10, UUG fidelity -17 and MT1-MMP act inh RFP 5.
`NNC(=O)c1ccc(COCC(F)(F)C(F)F)cc1` gave eIF4H FP inh 9, CSC inhib 4, MT1-MMP act inh 1, HIV Env fusion -7, Rce1 inh inactive, PABP polyA inh -15 and MT1-MMP act inh RFP 1.
For C[C@@H]1CN([C@@H](C)CO)C(=O)CCCn2nncc2CO[C@@H]1CN(C)C(=O)C1CCCCC1 the results were MT1-MMP act inh 6, HIV Env fusion 20, UUG fidelity -17&-10 and MT1-MMP act inh RFP 9.
`CCCCc1cc(=O)oc2cc(OCC(=O)N3C[C@H]4C[C@@H](C3)c3cccc(=O)n3C4)ccc12` gave eIF4H FP inh -4, CSC inhib -10, MT1-MMP act inh -1, Rce1 inh inactive, UUG fidelity -6, PABP polyA inh -5 and MT1-MMP act inh RFP 0.
`O=C(OC1CCOC1=O)c1ccc(-c2nc3ccccc3s2)s1` (stereo not drawn) gave eIF4H FP inh -2, CSC inhib -1, MT1-MMP act inh 4, Rce1 inh inactive, UUG fidelity -71, PABP polyA inh 5 and MT1-MMP act inh RFP 5.
For CC(C)(C)C(=O)NC1CCN(CC(=O)Nc2ccc3c(c2)OCO3)CC1 the results were eIF4H FP inh -9, CSC inhib 0, MT1-MMP act inh 2, HIV Env fusion -3, Rce1 inh inactive, UUG fidelity 3, PABP polyA inh -1 and MT1-MMP act inh RFP 0.
`COC(=O)c1ccc(Sc2nnnn2-c2ccccc2)c([N+](=O)[O-])c1` gave eIF4H FP inh -21, CSC inhib 4, MT1-MMP act inh -3, HIV Env fusion 41, Rce1 inh inactive, UUG fidelity 1, PABP polyA inh -11 and MT1-MMP act inh RFP -12.
For CN(C)C(=O)c1cccc(-c2cnc3c(NC=O)cc(-c4ccccc4F)cn23)c1 the results were MT1-MMP act inh -13, HIV Env fusion inactive, UUG fidelity 16 and MT1-MMP act inh RFP -3.
`Cc1ccc(S(=O)(=O)Nc2ccccc2N2CCOCC2)cc1` gave eIF4H FP inh -13, CSC inhib 39, MT1-MMP act inh -3, HIV Env fusion 31, Rce1 inh inactive, UUG fidelity -13, PABP polyA inh 0 and MT1-MMP act inh RFP -3.
`CN1C(=O)c2ccccc2N(C)C1c1ccccc1Cl` (stereo not drawn) gave eIF4H FP inh 10, CSC inhib -14, MT1-MMP act inh 6, HIV Env fusion -8, Rce1 inh active, PABP polyA inh -5 and MT1-MMP act inh RFP -1.
CCCCNC(=O)c1ccc(C)c(NC(=O)C2=C(C)OCCS2)c1 was read as eIF4H FP inh -4, CSC inhib -10, MT1-MMP act inh 0, HIV Env fusion 2, Rce1 inh inactive, UUG fidelity -12, PABP polyA inh -6 and MT1-MMP act inh RFP 2.
`COCCCNC(=O)Cn1cc2c(n1)CCCCC2` gave eIF4H FP inh 0, CSC inhib -17, MT1-MMP act inh -7, HIV Env fusion -2, Rce1 inh inactive, UUG fidelity -19, PABP polyA inh -4 and MT1-MMP act inh RFP 2.
For S=c1nc(-c2ccccc2)n(Cc2cccnc2)c2c1CCCC2 the results were eIF4H FP inh -2, CSC inhib -13, Rce1 inh inactive and PABP polyA inh 12.
Screening CCC(=O)N1CCc2cc(S(=O)(=O)N3CCN(c4ccccn4)CC3)ccc21 returned eIF4H FP inh -6, CSC inhib 11, MT1-MMP act inh 4, Rce1 inh inactive, UUG fidelity -4, PABP polyA inh -10 and MT1-MMP act inh RFP -2.
Screening COc1cc(CNCCN2CCOCC2)ccc1OCc1cccc(Cl)c1 returned eIF4H FP inh -8, CSC inhib -7, MT1-MMP act inh 0, Rce1 inh inactive, UUG fidelity -20, PABP polyA inh 14 and MT1-MMP act inh RFP 0.
Screening Oc1c(Cl)cc(Cl)cc1C1Nc2ccccc2-n2cccc21 (stereo not drawn) returned eIF4H FP inh -3, CSC inhib 3, MT1-MMP act inh -5, HIV Env fusion 11, Rce1 inh inactive, UUG fidelity 1, PABP polyA inh 2 and MT1-MMP act inh RFP 1.
Screening COc1ccc(/C=N/NC(=O)c2nc(-c3ccccc3)n(-c3ccccc3)n2)c(O)c1 returned eIF4H FP inh 18, MT1-MMP act inh 1, HIV Env fusion 3, Rce1 inh inactive, PABP polyA inh -11 and MT1-MMP act inh RFP -17.
Screening CCOC(=O)NC(=S)Nc1ccc(C(C)(C)C)cc1 returned eIF4H FP inh -13, CSC inhib 0, MT1-MMP act inh 1, HIV Env fusion 0, Rce1 inh inactive, UUG fidelity -6, PABP polyA inh 3 and MT1-MMP act inh RFP 0.
`COCCn1c(=N)c(S(=O)(=O)c2ccc(Br)cc2)cc2c(=O)n3ccccc3nc21` gave CSC inhib -17, MT1-MMP act inh -7, HIV Env fusion -1, Rce1 inh inactive, UUG fidelity -23 and MT1-MMP act inh RFP 2.
`COCCCC1CCN(C(=O)C2CCC(=O)N(C3CCCC3)C2)CC1` (stereo not drawn) gave eIF4H FP inh -2, CSC inhib -22, MT1-MMP act inh -1, Rce1 inh inactive, UUG fidelity -6, PABP polyA inh 16 and MT1-MMP act inh RFP -3.
Brc1ccc(-c2cnc3n2CCCC3)cc1 was read as eIF4H FP inh -6, CSC inhib -3, MT1-MMP act inh -4, Rce1 inh inactive, UUG fidelity -10, PABP polyA inh -8 and MT1-MMP act inh RFP -3.

Sorted by heavy-atom count (low to high): some entries from above.
Screening Oc1c(Cl)cc(Cl)cc1C1Nc2ccccc2-n2cccc21 (stereo not drawn) returned eIF4H FP inh -3, CSC inhib 3, MT1-MMP act inh -5, HIV Env fusion 11, Rce1 inh inactive, UUG fidelity 1, PABP polyA inh 2 and MT1-MMP act inh RFP 1.
`Cc1ccc(S(=O)(=O)Nc2ccccc2N2CCOCC2)cc1` gave eIF4H FP inh -13, CSC inhib 39, MT1-MMP act inh -3, HIV Env fusion 31, Rce1 inh inactive, UUG fidelity -13, PABP polyA inh 0 and MT1-MMP act inh RFP -3.
For S=c1nc(-c2ccccc2)n(Cc2cccnc2)c2c1CCCC2 the results were eIF4H FP inh -2, CSC inhib -13, Rce1 inh inactive and PABP polyA inh 12.

Screens deposited in PubChem by several laboratories.

An excerpt. The share of hits here may be higher or lower than overall.
